# Screens as filed in PubChem BioAssay.
# RGS16-Gao: RGS16-Galphao interaction regulator (human); AID 1441; 0.38% of 220,000 active; O15492+P09471; binding response (% of control), % at 10 µM; bead-based flow cytometry RGS16-Galphao binding, fluorescence; actives lie on both sides;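 active = below 25% or above 175%, edge rows of some plates excepted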;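 note: Galphao activated by GDP with aluminum fluoride before binding; 100% = wells without compound and 0% = beads without RGS; some results beyond the cut were filed as inactive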
# GALR2 ag: GALR2 (human) receptor agonism. GALR2-expressing cells, agonist activation read-out. 0.48% of 140,000 active. O43603. activation, %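 (tested at 5 µM)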;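 active = above mean plus 3 SD of all compounds, about 5% in these data, not always enough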;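 note: 0% = vehicle buffer wells and 100% = reference agonist at full effect; tested in CHO reporter cells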
# INS promoter inh: TRM-6 insulin promoter activity inhibition; TRM-6 cells (human fetal islet line), insulin promoter-eGFP reporter, imaging; reporter expression induced with tamoxifen; inhibition, % at 2 µM; 0.9% of 130,000 active;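 active = inhibition above the mean plus 3 SD, with well images judged a real hit on visual review, cut at about 60% in these data, passing the limit was not always enough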
# HSV replic up: increases HSV replication in cells. AID 1956. 0.005% of 220,000 active. HSV replication augmentation in cells, fold increase. maximum fold increase;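 active = peak rise of 1.5-fold or more in the series; tested in PC3 cells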;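 note: first round at 10 µM; read as green reporter fluorescence; hits show the peak of a series up to 25 µM; 1 = signal of infected wells without compound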
# PKD1 kinase inh: inhibitors of human PKD1 kinase; Q15139; PKD1 kinase fluorescence polarization assay; inhibition, %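 (about 10 µM by stock and volumes)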; 0.056% of 200,000 active; AID 797;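 active = inhibition of 50% or more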;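 note: controls were vehicle for no effect and a reference inhibitor for full effect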
# Target sequence (Q15139 whole entry, looked up): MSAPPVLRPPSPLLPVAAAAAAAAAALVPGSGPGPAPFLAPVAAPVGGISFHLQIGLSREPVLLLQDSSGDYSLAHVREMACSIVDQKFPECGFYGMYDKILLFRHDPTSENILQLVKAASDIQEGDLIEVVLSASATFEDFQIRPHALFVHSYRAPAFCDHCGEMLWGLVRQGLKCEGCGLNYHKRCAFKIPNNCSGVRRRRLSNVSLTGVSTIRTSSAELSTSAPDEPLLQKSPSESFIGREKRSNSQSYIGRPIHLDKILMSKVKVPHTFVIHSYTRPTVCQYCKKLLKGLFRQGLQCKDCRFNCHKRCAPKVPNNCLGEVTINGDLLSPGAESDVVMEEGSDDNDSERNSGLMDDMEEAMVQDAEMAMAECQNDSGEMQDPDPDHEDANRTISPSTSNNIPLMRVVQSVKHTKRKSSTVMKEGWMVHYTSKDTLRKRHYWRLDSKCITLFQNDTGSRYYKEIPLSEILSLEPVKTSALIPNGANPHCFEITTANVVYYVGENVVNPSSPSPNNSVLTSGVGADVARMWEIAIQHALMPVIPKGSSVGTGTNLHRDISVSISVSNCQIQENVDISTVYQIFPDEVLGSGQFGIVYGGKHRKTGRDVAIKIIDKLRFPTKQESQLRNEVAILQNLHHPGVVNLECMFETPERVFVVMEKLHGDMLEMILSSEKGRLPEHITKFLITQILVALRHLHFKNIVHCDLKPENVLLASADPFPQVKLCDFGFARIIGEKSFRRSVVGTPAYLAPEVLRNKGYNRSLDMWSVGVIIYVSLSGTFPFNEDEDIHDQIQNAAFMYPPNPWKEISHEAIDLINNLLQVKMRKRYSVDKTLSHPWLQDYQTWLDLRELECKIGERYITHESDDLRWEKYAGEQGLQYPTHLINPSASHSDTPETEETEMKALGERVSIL
# INS promoter inh cell count: recorded beside INS promoter inh, whose call it bears; normalized cell count, %; measured here: cell count, toxicity; reference of the scale not given here;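 cells exposed to compound for 48 h; stained nuclei by imaging scaled within each plate; lower means fewer cells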
# HSV replic up primary fold: also measured in HSV replic up; calls as there; fold increase; compound at 10 µM; measured here: primary screen fold increase 10 uM; tested in PC3 cells;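 GFP signal in the first replicate; 1 = infected wells without compound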
# An asterisk follows results filed as active; i = inactive; x = no result given.
SMILES,RGS16-Gao,GALR2 ag,INS promoter inh,INS promoter inh cell count,HSV replic up,HSV replic up primary fold,PKD1 kinase inh
COC(=O)c1nn(C23CC4CC(CC(C4)C2)C3)c2c1C(=O)N(c1ccc(F)cc1)C2=O,94,-2.9,x,x,i,1,7
COc1ccc(C(=O)NNC(=O)c2cc3cccc(OC)c3oc2=O)cc1,102,x,-8,121,i,1,-3
COc1cc(OC)nc(/N=C/NO)n1,105,x,x,x,i,0.9,x
CC(C)C(=O)N1CCN(c2ccc(NC(=O)c3ccc([N+](=O)[O-])o3)cc2Cl)CC1,104,x,i,2,i,0.63,0
O=C1NCCN1CCNS(=O)(=O)c1ccc2ccccc2c1,73,-0.2,x,x,i,0.96,4
CCOc1ccccc1-n1nnnc1SCC(=O)Nc1cc2oc3ccccc3c2cc1OC,97,0.3,20,74,i,0.91,-4
CC(=O)c1cc(C#N)c(SCc2ccc(F)cc2)nc1C,113,-0.8,-9,108,i,1,0
O=C(OCC1COc2ccccc2O1)c1c(F)cccc1F (configuration not stated),103,-2.9,x,x,i,1.1,-1
COc1cccc(NC(=O)NCc2cccn2C)c1,100,-1.3,x,x,i,1,8
CC(C)CCNC(=O)C(c1cccnc1)N(CCc1ccccc1)C(=O)Cn1nnc2ccccc21 (configuration not stated),104,-1.5,40,117,i,1.1,-8
CCc1nc(Nc2ccc3c(c2)OCCO3)c2oc3ccccc3c2n1,1,-1.1,86*,85*,i,0.79,0
Cc1ccc2cc(/C=N/NC(=O)CN3CCCCC3)c(Cl)nc2c1,106,x,x,x,i,0.98,3
O=C(NCc1cccs1)C(=O)NCC(c1ccco1)N1CCN(c2ccccc2)CC1 (configuration not stated),98,x,x,x,i,0.92,1
CCOC(=O)COc1ccc(C)cc1-c1ccno1,107,-2.2,-18,119,i,1.1,-7
CCCCCC(=O)N1CCCCC1,111,x,x,x,i,0.86,x
Cc1ccsc1C(C(=O)NC1CCCCC1)N(C(=O)c1csnn1)C1CC1 (configuration not stated),81,-2.1,x,x,i,0.74,-9
O=[N+]([O-])c1cccc(CNc2ccc3c(c2)CCC3)c1,105,-0.5,25,110,i,0.84,1
CCN(CC)S(=O)(=O)c1ccc(-c2nnc3sc4cccc(C)c4n23)cc1,100,-1.6,x,x,i,1,-1
Nc1[nH]n2c(=O)cc(-c3ccccc3)nc2c1N=Nc1ccc2c(c1)OCO2,102,x,x,x,i,0.98,0
N/C(=N\S(=O)(=O)c1ccc(Cl)s1)c1ccccc1,109,-0.9,x,x,i,1,7
CCOC(=O)c1ccc2nc(C)cc(Nc3cccc(C(=O)O)c3)c2c1,101,-1.6,46,92,x,x,-7
CCOC(=O)CSc1nnc(COc2cccc(C)c2)o1,111,x,-2,107,i,0.99,-17
CCOC(=O)N1N=C(c2ccccc2)CC1(O)C(F)(F)F (configuration not stated),102,-1.7,x,x,x,x,8
CCCN1C(=O)/C(=C/c2cc(C)n(C)c2C)SC1=Nc1ccc(OC)cc1,113,-0.1,x,x,i,0.87,-1
CCOc1cc(Cl)c(S(=O)(=O)NCc2ccccn2)cc1Cl,100,0.5,-11,144,i,0.87,2
O=C(O)CCc1nn2cc(-c3ccccc3)nc2[nH]c1=O,100,-0.9,20,87,i,1,-11
CC1=C(C(=O)N2CCN(c3cc(C)ccc3C)CC2)C2(CCCCC2)OC1=O,99,-0.8,-65,144,x,x,-10
CN1CCN(C(=O)c2ccc3ccccc3c2)CC1,104,-3.2,x,x,i,0.72,-1
CCNc1cc(N2CCOCC2)nc(SC)n1,103,x,40,46,i,1.1,8
COc1ccc(N(CC(=O)Nc2ccccc2C(N)=O)S(=O)(=O)c2ccc(C)c([N+](=O)[O-])c2)cc1,109,x,39,107,i,0.91,0

# Taken from above:
# In PKD1 kinase inh, CCCN1C(=O)/C(=C/c2cc(C)n(C)c2C)SC1=Nc1ccc(OC)cc1 is listed with -1
# In INS promoter inh, CCOC(=O)c1ccc2nc(C)cc(Nc3cccc(C(=O)O)c3)c2c1 is listed with 46

# Quoted from the entries so far, 3 compounds:
SMILES,RGS16-Gao,GALR2 ag,INS promoter inh,INS promoter inh cell count,HSV replic up,HSV replic up primary fold,PKD1 kinase inh
CN1CCN(C(=O)c2ccc3ccccc3c2)CC1,104,-3.2,x,x,i,0.72,-1
CCNc1cc(N2CCOCC2)nc(SC)n1,103,x,40,46,i,1.1,8
COc1ccc(N(CC(=O)Nc2ccccc2C(N)=O)S(=O)(=O)c2ccc(C)c([N+](=O)[O-])c2)cc1,109,x,39,107,i,0.91,0

# Arranged by the number under GALR2 ag (largest number first): 3 of the compounds above.
molecule	GALR2 ag
CCOc1cc(Cl)c(S(=O)(=O)NCc2ccccn2)cc1Cl	0.5
O=[N+]([O-])c1cccc(CNc2ccc3c(c2)CCC3)c1	-0.5
CN1CCN(C(=O)c2ccc3ccccc3c2)CC1	-3.2

# Additional entries
SMILES,RGS16-Gao,GALR2 ag,INS promoter inh,INS promoter inh cell count,HSV replic up,HSV replic up primary fold,PKD1 kinase inh
Cc1nnc(NC(=O)CSc2ncn(-c3ccccc3)n2)s1,105,x,0,128,i,0.96,1
Cc1ccc(S(=O)(=O)n2c3ccc(F)cc3c3nc(C)sc32)cc1,103,0.6,x,x,i,0.81,4
Cc1ccc(-c2nnc3n2N=C(c2ccccc2)CS3)cc1,106,-0.4,x,x,i,1,-3
Cn1c(=O)c2c(nc(NCc3ccccc3)n2CCCc2ccccc2)n(C)c1=O,103,-2.0,-253,105,i,0.89,-8
CN(C)c1ccc(C=NCCC2(O)CCOC(C)(C)C2)cc1 (configuration not stated),100,-0.5,0,137,i,1.1,-9
CN(C(=O)CS(=O)(=O)c1cccc(Cl)c1)c1ccccc1,92,x,45,63,i,0.99,13
Cc1cc(N2CCN(C)CC2)nc2ccc(NC(=S)N3CCN(c4cccc(Cl)c4)CC3)cc12,103,x,x,x,i,0.93,-4
COc1ccc2c(c1)c(=O)c(C(=O)c1ccccc1)cn2Cc1ccc(C)cc1,115,0.8,7,117,i,0.51,-3
COc1ccc(CCn2c(N)c(S(=O)(=O)c3cccs3)c3nc4ccccc4nc32)cc1OC,97,0.1,x,x,i,0.82,7
O=C(Nc1ccc(-c2csc(Nc3cccc(C(F)(F)F)c3)n2)cc1)c1cc([N+](=O)[O-])cc(C(F)(F)F)c1,96,x,x,x,i,0.6,x
N#C/C(=C\c1cn(Cc2ccccc2)c2ccccc12)C(=O)NCc1ccco1,111,-0.1,-3,76,i,0.9,-14
Cc1cc(Cl)ccc1OCc1nnc2n1CCCCC2,100,x,x,x,i,1,7
COc1ccc(Cl)cc1NC(=O)COC(=O)CNC(=O)c1ccc([N+](=O)[O-])c(C)c1,113,-1.3,-3,126,i,0.91,-6
Cc1cc(-c2nnc3n2CCCCC3)c(C)n1-c1ccccc1,104,0.3,x,x,i,0.84,-5
Cc1ccc(-c2[nH]c(-c3ccc(C(=O)O)cc3)nc2-c2ccccc2)cc1,119,0.1,-7,78,i,0.97,-2
c1nc(N2CCN(Cc3ccc4c(c3)OCO4)CC2)c2[nH]cnc2n1,101,-0.1,50,134,i,0.84,-3
CC(C)N(C(=O)C(F)(F)F)C(C(=O)NC1CCCCC1)c1ccncc1 (configuration not stated),104,-1.0,-8,117,i,0.82,-4
O=C(CN1C(=O)c2ccccc2C1=O)Nc1ccc(N2CCOCC2)cc1,82,-2.6,15,98,i,1.1,-13
CCOCCCNC(=O)C1CCN(C(=O)Nc2ccc(C)cc2)CC1,105,-2.6,x,x,i,0.86,-8
O=C(Nc1cccc(Cl)c1N1CCCC1)c1ccc([N+](=O)[O-])o1,103,x,-18,63,i,0.64,1
Cc1sc2ncnc(-n3cnc4ccccc43)c2c1C,104,-2.1,3,51,i,0.91,-7
CCCOC(=O)c1ccc(Oc2c(-c3ccc(OC)cc3O)n[nH]c2C)cc1,109,1.4,33,93,i,0.9,-5
CC1(C)CC(=O)c2c(n(-c3cccc4ccccc34)ccc2=O)C1,94,-1.0,41,47,i,0.88,-1
N#Cc1c(NC(=O)C2CC(Cl)=CCC2C(=O)O)sc2c1CCCCC2 (configuration not stated),103,x,x,x,i,0.99,-5
O=S(=O)(c1ccc(NC(=S)NN=C(C2CC2)C2CC2)cc1)N1CCOCC1,75,x,x,x,i,0.89,x
O=C1CC(Cc2ccccc2)C(=O)N1c1ccc(Cl)cn1 (configuration not stated),104,-0.4,31,104,i,0.84,2
COc1cc(OC)cc(C(=O)NNC(=O)c2ccccc2Br)c1,115,-0.7,x,x,i,1.1,-1
COc1ccc(CCNc2ccc(N3C(=O)CC(C)C3=O)cc2[N+](=O)[O-])cc1 (configuration not stated),100,x,x,x,i,0.96,1
CCCCCCOc1ccc(N2C(=O)CC(N(CCc3ccc(S(N)(=O)=O)cc3)C(C)=O)C2=O)cc1 (configuration not stated),99,x,x,x,i,1.1,3
CC1CCc2nn(CC(=O)NCCCN3CCOCC3)cc2C1 (configuration not stated),103,-2.2,x,x,i,0.86,-7
Nc1cc(Cl)nc(N/N=C/c2ccc([N+](=O)[O-])cc2)n1,98,-0.9,x,x,i,1.1,-8
O=C(CN1CCCC1)Nc1c2c(nc3ccccc13)N(Cc1ccccc1)CC2,103,-1.8,32,135,i,0.87,100*
CCOC(=O)c1ccc2[nH]c3c(c2c1)CN(C)CC3,95,0.2,x,x,i,0.7,-12
CCc1ccc(NC(=S)N(CCCN2CCN(C)CC2)Cc2cccs2)cc1,126,0.3,-12,101,i,0.89,12
O=C(Nc1cccc(S(=O)(=O)NC2=NCCCCC2)c1)c1cc(-c2ccccc2)nc2ccccc12,29,-1.6,8,92,x,x,-5
COc1ccc(-c2nnc(SCC(=O)NNC(=O)c3ccc(C)cc3)o2)cc1,108,-2.6,6,160,i,0.97,-9
COc1ccccc1N1CCN(C(=O)C(C)N(c2ccc(C)c(C)c2)S(C)(=O)=O)CC1 (configuration not stated),104,-0.8,25,147,i,0.98,-9
Cc1cc(NC(=O)c2ccc(N3C(=O)C4C5C=CC(C5)C4C3=O)cc2)no1 (configuration not stated),104,x,x,x,i,1,-11
CC(C)(C)NC(=O)CON=C1c2ccccc2-c2ccccc21,99,-2.4,-27,141,i,0.91,-3
O=C(Nc1cc2c(=O)n(-c3ccc(Oc4ccccc4)cc3)ccc2oc1=O)c1ccccc1,96,x,22,114,i,0.8,-5
Cn1cc(CNC(=O)C2CCCCC2)cn1,-19,-0.8,-16,107,i,0.97,0
CCOC(=O)c1nn(-c2ccc3ccccc3c2)cc1O,101,x,x,x,i,0.9,5
CCOc1cc(C(=O)NCC(C)CN(C)C)cc(OCC)c1OCC (configuration not stated),102,-0.8,-315,38,i,1.1,2
CC(=O)Nc1ccc(Nc2ncnc(N)c2[N+](=O)[O-])cc1,93,x,x,x,i,0.88,x
Cc1cccc(CCNC(=O)C2CCN(S(=O)(=O)c3c(C)nn(C)c3C)CC2)c1,93,0.1,x,x,i,0.96,-5
O=C(O)c1cnc(-c2ccccc2)nc1Sc1ccccc1,109,-1.1,x,x,i,0.95,-1
CN(C)CCC1Sc2ccccc2Oc2ccccc21 (configuration not stated),110,-3.9,-45,139,i,0.69,-8
CCc1nnc(NC(=O)CSc2nnc(Cc3ccccc3)n2-c2ccccc2)s1,103,0.3,82*,90*,i,0.95,-10
CCN(c1nc(C)cc(OC)n1)S(=O)(=O)c1ccccc1,106,-1.3,x,x,i,0.88,7
CCOC(=O)N1CCC(N(CCN(C)C)C(=S)Nc2ccc(Oc3ccccc3)cc2)CC1,106,x,-91,118,i,0.83,0
CC(C)CNC(=O)CSc1nnc(-c2cccc(S(=O)(=O)N3CCCCC3)c2)o1,99,-1.0,3,112,i,0.99,-6
CCOC(=O)CC1C(=O)NC2CCCCC2N1C(=O)Nc1ccc(Cl)cc1 (configuration not stated),100,-1.4,-6,104,i,0.95,-8
Cc1cccc(CCNC(=O)COc2cc(=O)n(C)c3ccccc23)c1,100,x,5,96,i,0.92,2
Cc1cc(-c2ccccc2)nc(SCC(=O)c2cccc([N+](=O)[O-])c2)n1,101,-1.6,x,x,i,0.7,10
O=c1/c(=C/c2ccco2)sc2n1CN(c1ccccc1)CN=2,94,-2.1,20,152,i,0.98,-5
C/C(=N\NC(=O)c1ccc(NS(=O)(=O)c2cccs2)cc1)c1ccccn1,125,x,x,x,i,0.94,x
CCOC(=O)C1CCN(c2c(NCc3ccc(N(C)C)cc3)c(=O)c2=O)CC1,103,x,x,x,i,1,x
CCN(C(=O)Cn1cc(C(C)=O)c2ccccc21)c1ccccc1,112,x,x,x,i,0.96,2
COCCCN1C(=O)c2ccc(C(=O)OCC(=O)N(C)c3ccccc3)cc2C1=O,101,x,x,x,i,0.96,-1
Cc1nc2c3ccccc3n(CC(=O)c3ccc(F)cc3)c(=O)n2n1,110,-1.2,x,x,i,0.93,1
Cc1ccc(C(C)C)c(OC/C(O)=C(\C#N)c2nc3ccccc3[nH]2)c1,97,x,x,x,i,1,x
